A1 inhib = A1 inhibition | MEF A1-2A-BIM cells, caspase-Glo luminescence, 3 h; percent of clofoctol signal, DMSO as zero | caspase activation, % (concentration not given with the values) | actives 0.51% (n = 21,000);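 active = most replicate scores above 10, or exactly half above 10 with mean activity above 10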;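 also: effector caspase 3 and 7 activity cleaving a DEVD luciferin substrate; 50 nL library stock added to about 30 µL; numbers are from one replicate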
BJeLR viability = BJeLR cell viability reduction; BJeLR fibroblasts viability, CellTiterGlo ATP luminescence, 48 h; HRASV12, hTERT and SV40 LT/ST transformed; viability loss activity score, % (concentration not given with the values); actives 0.64% (n = 30,000); AID 2275; in the data active = viability loss activity score above about 50%; about a fifth of its hits are not listed in these tables;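 also: higher score means fewer live cells and less ATP luminescence; stock transfer was 50 or 100 nL into about 30 µL; 0% = vehicle wells and 100% = a reference killing control; one replicate is shown; the record names a cut of 85%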
Active calls of the source: *; · = no result given. Only part of the results is shown; the hit share may differ from the screen's.

The line under a structure holds: A1 inhib, BJeLR viability
CC(C)(C)c1ccc(OCC(N)=NC(=O)c2ccc(OC(F)(F)F)cc2)cc1
→ -1.6, -2.1
COc1ccc(S(=O)(=O)N(C)C[C@H]2Oc3ccc(NC(=O)C4CCCCC4)cc3C(=O)N([C@H](C)CO)C[C@H]2C)cc1
→ 1.5, 12.4
O=C1C2CC=CCC2C(=O)N1Cc1ccccc1 (centres undefined)
→ 1.7, -0.9
CC(=O)N(CN1C(=O)c2ccccc2C1=O)c1ccccc1C
→ -0.6, 8.6
COc1ccc(NC(=O)Nc2ccc3c(c2)C(=O)N([C@H](C)CO)C[C@@H](C)[C@@H](CN(C)Cc2ccc(Oc4ccccc4)cc2)O3)cc1
→ 0.2, 0.6
COC1=CC(=O)OC1C(O)C(O)C(OC(C)=O)c1ccccc1 (centres undefined)
→ -0.3, -0.7
O=C(CN1C(=O)S/C(=C\C=C\c2ccccc2)C1=O)Nc1cccc(O)c1
→ -1.4, -1.9
C[C@@H]1CN([C@@H](C)CO)C(=O)c2cc(NC(=O)C3CC3)ccc2O[C@@H]1CN(C)C(=O)Nc1cccc2ccccc12
→ 0.7, -2.8
CCc1ccnc(NC(=O)CC2(CC(=O)O)CCCCC2)c1
→ 0.3, -4.7
Cc1noc(C)c1NC(=O)N(C)C[C@H]1Oc2ccc(NS(=O)(=O)c3ccc(Cl)cc3)cc2C(=O)N([C@@H](C)CO)C[C@H]1C
→ 0.1, -0.4
Cc1nc2ccc(C(F)(F)F)cc2n1CCc1ccccc1
→ -0.3, 2.4
C[C@H](CO)N1C[C@H](C)[C@H](CN(C)Cc2ccc3c(c2)OCO3)Oc2ccc(NC(=O)CCCN(C)C)cc2C1=O
→ 0.1, -5.3
Nc1nnnn1/N=C1/C(=O)Nc2ccc(Br)cc21
→ 1.0, 7.9
C[C@H]1CN([C@@H](C)CO)C(=O)c2cccc(NC(=O)Nc3ccc(F)cc3)c2O[C@H]1CN(C)Cc1ccc2c(c1)OCO2
→ ·, -4.9
C[C@H](CO)N1C[C@H](C)[C@H](CN(C)S(=O)(=O)c2ccc(F)cc2)Oc2c(NC(=O)NC3CCCCC3)cccc2C1=O
→ ·, -3.1
Cc1cc(C)cc(NC(=S)N(CCCN2CCOCC2)C(C)c2cc3ccccc3o2)c1 (centres undefined)
→ ·, 4.3
CC(NC(=O)c1ccncc1)C(c1cccs1)N1CCN(Cc2ccccc2)CC1 (centres undefined)
→ ·, -1.4
C[C@@H]1CN([C@@H](C)CO)C(=O)c2cc(NC(=O)Nc3ccc4c(c3)OCO4)ccc2O[C@@H]1CN(C)S(=O)(=O)c1ccccc1
→ -0.1, 0.3
Cn1c(=NC(=O)c2ccc(F)cc2)sc2ccccc21
→ -5.7, -0.2
CCN1C(=O)C(CC(=O)Nc2ccc(F)cc2)N(CCc2ccccc2)C1=S (centres undefined)
→ ·, -4.2
Cc1cccc(-n2c(C)cc(C(=S)N3CCOCC3)c2C)c1C
→ ·, 0.0
O=C(c1ccc(Cn2c(=O)[nH]c3ccsc3c2=O)cc1)N1CCCCC1
→ ·, -1.6
C[C@@H]1CN([C@H](C)CO)C(=O)c2cc(NC(=O)Cn3cnnn3)ccc2O[C@H]1CN(C)C(=O)Nc1ccccc1
→ 0.3, 0.5
O=C(OCCN1CCCCC1)c1cccc(COc2ccc3ccccc3c2)c1
→ ·, 0.2
N#Cc1ccc(CSc2ccc(Cl)cc2)cc1
→ -0.4, -1.1
C[C@@H]1CN([C@@H](C)CO)C(=O)c2cc(NS(C)(=O)=O)ccc2O[C@@H]1CN(C)Cc1ccc2c(c1)OCO2
→ -0.3, 5.1
CCOC(=O)c1ccc(-n2c(C)cc(C=C3C(=O)NC(=S)NC3=O)c2C)cc1
→ 0.9, -2.8
C[C@@H]1CN([C@H](C)CO)C(=O)c2cc(NC(=O)Nc3ccccc3)ccc2O[C@H]1CN(C)S(=O)(=O)c1ccc(Cl)cc1
→ -0.4, 0.5
C[C@@H]1CN([C@H](C)CO)C(=O)c2cccc(N(C)C)c2O[C@@H]1CN(C)C
→ ·, 2.2
C[C@H]1CN([C@@H](C)CO)C(=O)c2cccc(NC(=O)Nc3ccc(F)cc3)c2O[C@H]1CN(C)C(=O)Nc1ccccc1
→ ·, -0.5
CC1(C)CC(=O)c2cc(C(=O)NCCC3=CCCCC3)c(=O)n(-c3ccccc3)c2C1
→ -0.2, -4.7
COc1ccc(NC(=O)Nc2ccc3c(c2)C(=O)N([C@H](C)CO)C[C@@H](C)[C@H](CN(C)C(=O)Nc2ccc4c(c2)OCO4)O3)cc1
→ 0.8, -2.8
COc1ccc(CNC(=O)CCn2c(=O)c3sccc3n(CC(=O)N3CCCCC3C)c2=O)cc1 (centres undefined)
→ ·, -3.9
CC1(C)CC[C@]2(C(=O)O[C@@H]3O[C@H](CO)[C@@H](O)[C@H](O)[C@H]3O)CC[C@]3(C)C(=CCC4[C@@]5(C)C[C@@H](O)[C@H](O)[C@@](C)(COC(=O)c6cc(O)c(O)c(O)c6)C5[C@H](O)C[C@]43C)[C@@H]2C1 (some centres undefined)
→ 0.0, -0.6
Cn1c(=O)oc2cc(S(=O)(=O)N3CCC(C(=O)NCCc4ccc(Cl)cc4)CC3)ccc21
→ ·, -3.6
N#Cc1cccc(C#N)c1Oc1ccc(S(=O)(=O)NCc2ccco2)cc1
→ -0.1, 6.1
COc1ccc(-c2noc(=O)n2Cc2cccc(C)c2)cc1
→ -0.7, -2.2
C[C@H](CO)N1C[C@H](C)[C@@H](CN(C)Cc2ccc(Oc3ccccc3)cc2)Oc2ccc(NC(=O)CCN3CCOCC3)cc2C1=O
→ 0.6, 0.1
C[C@@H]1CN([C@H](C)CO)C(=O)c2cccc(NC(=O)NC3CCCCC3)c2O[C@@H]1CN(C)S(=O)(=O)c1ccc(F)cc1
→ ·, -2.7
COc1ccc(NC(=O)N(C)C[C@@H]2Oc3c(NC(=O)Nc4ccccc4)cccc3C(=O)N([C@H](C)CO)C[C@H]2C)cc1
→ ·, 0.8
CCc1ccccc1NC(=O)C(C)Oc1ccccc1 (centres undefined)
→ 0.8, -4.0
C[C@H]1CN([C@@H](C)CO)C(=O)c2cccc(NS(=O)(=O)c3cccs3)c2O[C@H]1CN(C)Cc1ccc(C(=O)O)cc1
→ ·, 7.0
COc1ccc(S(=O)(=O)N(C)C[C@H]2Oc3c(NC(=O)Nc4ccc5c(c4)OCO5)cccc3C(=O)N([C@H](C)CO)C[C@@H]2C)cc1
→ ·, 5.3
C[C@H](CO)N1C[C@H](C)[C@@H](CN(C)S(C)(=O)=O)Oc2c(NC(=O)C3CCCCC3)cccc2C1=O
→ ·, 7.1
C[C@@H]1CN([C@@H](C)CO)C(=O)c2cccc(NS(=O)(=O)c3cccs3)c2O[C@H]1CN(C)C(=O)Nc1ccc(C(F)(F)F)cc1
→ ·, -0.9
C[C@H]1CN([C@@H](C)CO)C(=O)c2cccc(NC(=O)Nc3ccc4c(c3)OCO4)c2O[C@H]1CN(C)S(=O)(=O)c1ccc(Cl)cc1
→ ·, 1.9
C[C@H](CO)N1C[C@H](C)[C@H](CN(C)S(=O)(=O)c2ccc(F)cc2)Oc2c(NC(=O)Nc3ccc(F)cc3)cccc2C1=O
→ ·, 0.6
C[C@@H]1CN([C@H](C)CO)C(=O)c2cc(NC(=O)Cc3ccccc3)ccc2O[C@@H]1CN(C)S(=O)(=O)c1ccccc1
→ -0.2, -2.0
CNC(=O)c1ccccc1Sc1ccccc1C(=O)NC
→ 0.6, -2.1
O=C(CCN1CCN(c2ccccc2)CC1)c1ccc2ccccc2c1
→ -1.4, -1.6
Clc1ccc2oc(-c3ccccn3)nc2c1
→ ·, 10.4
Cc1nc(-c2c(C(=O)NN)noc2C)cs1
→ 0.4, -2.3
C[C@H](CO)N1C[C@H](C)[C@H](CN(C)Cc2ccc(C(F)(F)F)cc2)Oc2ccc(NC(=O)C3CCCCC3)cc2C1=O
→ 0.1, -2.1
CC(C)CNC(=O)c1cc(-c2cccs2)on1
→ ·, 10.3
C[C@H](CO)N1C[C@H](C)[C@@H](CN(C)Cc2ccc(C(F)(F)F)cc2)Oc2ccc(NC(=O)CCC(F)(F)F)cc2C1=O
→ 0.3, -3.9
C[C@H]1CN([C@@H](C)CO)C(=O)c2cc(NC(=O)Nc3ccccc3)ccc2O[C@@H]1CN(C)C(=O)Nc1ccc(F)cc1
→ 0.4, -1.2
O=C(O)CC1CCC(CC(O)/C=C\C/C=C\CCCCCO)O1 (centres undefined)
→ -0.7, 12.1
C[C@H](CO)N1C[C@H](C)[C@@H](CN(C)C(=O)Nc2ccccc2)Oc2ccc(NC(=O)Cc3ccccc3)cc2C1=O
→ -0.5, 2.4
Cc1ccc(S(=O)(=O)n2nc(C)cc2C)cc1
→ -0.1, 2.2
CCN(CC)S(=O)(=O)c1cc(-c2nnc(-c3ccc(C)cc3)o2)ccc1C
→ -1.2, 3.9

(cont.)
The line under a structure holds: A1 inhib, BJeLR viability
CCOC(=O)CC(N)c1cccc(O)c1 (centres undefined)
→ 0.7, 3.0
COc1ccc(S(=O)(=O)N(C)C[C@@H]2Oc3c(NS(=O)(=O)c4ccc(Cl)cc4)cccc3C(=O)N([C@@H](C)CO)C[C@@H]2C)cc1
→ ·, 2.1
C=C1[C@H]2CC[C@H](C(=O)O)[C@@]23CC[C@H](C3)C1(C)C
→ -0.3, -1.1
CN/C(=C/[N+](=O)[O-])NCCSCc1csc(CN(C)C)n1
→ 1.6, 3.8
C[C@@H]1CN([C@H](C)CO)C(=O)c2cccc(NC(=O)C3CC3)c2O[C@H]1CN(C)Cc1ccc(-c2ccccc2)cc1
→ ·, -4.6
CN1/C(=C\C=C2\C(=O)Oc3ccccc3C2=O)C(C)(C)c2ccccc21
→ -0.4, -0.5
COc1ccc(NC(=O)Nc2ccc3c(c2)C(=O)N([C@H](C)CO)C[C@H](C)[C@H](CN(C)S(=O)(=O)c2ccccc2)O3)cc1
→ 0.8, 0.4
Cc1ccc(S(=O)(=O)N(C)C[C@@H]2Oc3c(NC(=O)NC4CCCCC4)cccc3C(=O)N([C@H](C)CO)C[C@@H]2C)cc1
→ ·, -0.6
O=C(CC1C(=O)N(c2ccccc2)C(=S)N1CCc1ccc(F)cc1)Nc1ccc(F)cc1 (centres undefined)
→ 1.2, 5.3
CC(C(=O)N1CCCCC1)n1c2ccccc2c2cnn(C)c(=O)c21 (centres undefined)
→ -0.6, 2.0
COc1cc(C(=O)/C=C/Nc2ccccc2C(N)=O)cc(OC)c1OC
→ 2.4, 29.3
COc1ccc(CN(C)C[C@H]2Oc3ccc(NS(=O)(=O)c4ccc(C)cc4)cc3C(=O)N([C@H](C)CO)C[C@@H]2C)cc1
→ 0.4, -1.6
C[C@H]1CN([C@@H](C)CO)C(=O)c2cc(NC(=O)c3ccncc3)ccc2O[C@@H]1CN(C)S(=O)(=O)c1ccccc1
→ 0.7, 3.5
COc1ccc(S(=O)(=O)Nc2ccc3c(c2)C(=O)N([C@@H](C)CO)C[C@@H](C)[C@@H](CN(C)Cc2ccc(C(F)(F)F)cc2)O3)cc1
→ -0.2, 1.2
C[C@@H]1CN([C@@H](C)CO)C(=O)c2cc(NC(=O)CCC(F)(F)F)ccc2O[C@@H]1CN(C)S(=O)(=O)c1ccc(Cl)cc1
→ 0.5, 3.4
COc1ccc(S(=O)(=O)Nc2ccc3c(c2)C(=O)N([C@@H](C)CO)C[C@@H](C)[C@@H](CN(C)Cc2ccncc2)O3)cc1
→ -0.4, -4.7
C[C@H](CO)N1C[C@H](C)[C@@H](CN(C)Cc2ccncc2)Oc2ccc(NC(=O)CCN3CCOCC3)cc2C1=O
→ -0.6, 3.2
COC(=O)c1ccccc1NC(=O)c1ccccc1Br
→ 1.3, 3.5
CCOC(=O)N1CCC(NC(=O)Nc2ccc(F)cc2)CC1
→ ·, -0.6
O=C(NCc1cccnc1)C1CCC(c2ccc(Cl)cc2)CC1 (centres undefined)
→ -0.5, 4.7
Nn1c(CSc2ccccn2)nc2ccccc2c1=O
→ ·, -5.7
C[C@@H]1CN([C@H](C)CO)C(=O)c2cc(NC(=O)C3CC3)ccc2O[C@@H]1CN(C)Cc1ccc(Oc2ccccc2)cc1
→ 1.0, -2.1
O=S1(=O)CCC(NC(=S)N2CCCCC2)C1 (centres undefined)
→ 0.3, -6.1
C[C@@H]1CN([C@H](C)CO)C(=O)c2cccc(NC(=O)Nc3ccc4c(c3)OCO4)c2O[C@H]1CN(C)Cc1ccc(-c2ccccc2)cc1
→ ·, -5.7
